High-throughput results deposited in PubChem by several laboratories.
PABP polyA inh: PABP poly(A) RNA binding inhibitors, primary screen, biochemical, fluorescence polarization, uHTS. Polyadenylate-binding protein 1 (Homo sapiens), P11940. inhibition, % at 35 µM. 290,000 compounds, 1% hits;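 active = 50% or more with normal probe brightness, or confirmed in later tests; inconclusive = above 50% with abnormal brightness, or retests that disagree; inactive = below 50% or failed in later tests; about a fifth of its hits are not listed in these tables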;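 note: calls also rest on retests at 20 µM and on dose response follow-up; controls were probe without protein and protein plus probe with vehicle; some compounds called inactive have numbers as strong as hits; many hits fall short of the cut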
Env fusion inh: inhibitors of HIV-1 Env-driven cell-cell fusion, primary screen, HeLa-JRFL effector, CEM21 target cells, luciferase | AID 651610, 2012 | inhibition, % at 12.3 µM | 360,000 compounds, 1.1% hits;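 active = mean replicate inhibition score of at least 50 and every replicate individually at or above 50; inconclusive = only one of the two criteria met; inactive = mean below 50 and not all replicates reaching 50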;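 note: 0% = plate neutral controls and 100% = maraviroc near 300 nM; one replicate is shown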
eIF4H FP inh: human eIF4H binding inhibitors, primary screen, translation initiation inhibitor project, biochemical, uHTS, fluorescence polarization | eIF4H fluorescence polarization binding assay | inhibition, % at 35 µM | 290,000 compounds, 0.94% hits | AID 2012, 2009;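 active = 50% or more with normal probe brightness, or confirmed in later tests; inconclusive = above 50% with abnormal brightness, or retests that disagree; inactive = below 50% or failed in later tests; about a fifth of its hits are not listed in these tables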;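 note: calls also rest on retests at 20 µM and on dose response follow-up; 0% = protein and probe with vehicle and 100% = probe without protein; strong numbers were not always called active; many hits fall short of the cut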
CSC inhib: cancer stem cell viability inhibitors, primary screen, luminescence; cancer stem cell-like cells viability; inhibition, % at 7.5 µM; 300,000 compounds, 1.1% hits;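 active = mean at 75% or more and at least half the replicates too; inconclusive = mean and replicates disagree; tested in HMLE shEcad cells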;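 note: 0% = median of negative and 100% = median of positive control wells; the first replicate is given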
MT1-MMP act inh: blockers of MT1-MMP proenzyme processing, primary screen, HT1080 RFP-PRO-GFP cells, GFP/RFP fluorescence. 360,000 compounds, 0.061% hits. GFP/RFP ratio fluorescence, overnight; percent of plate control window, DMSO zero. AID 651647, 2012. GFP/RFP ratio change, % at 20 µM;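 active = GFP/RFP ratio change of at least 30% with cell ATP level not reduced by more than half and red fluorescence within 50% of control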; note: strong numbers were not always called active
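Assay system: RFP-PRO-GFP reporter HT1080 cells; read-out basis: GFP/RFP fluorescence ratio; benchmarks: DMSO wells and RFP-L50D-GFP cells; doses: 20 µM single dose, 1% DMSO; schedule: overnight cell settling, then overnight compound exposure, 37 °C, 5% CO2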
Rce1 inhib: yeast Rce1p protease inhibitors, primary screen, biochemical, fluorescence, cell-free homogeneous; AID 2563, 2010; calls only; 290,000 compounds, 0.27% hits; yeast membranes, quenched prenylated peptide cleavage fluorescence; CAAX prenyl protease 2 (Saccharomyces cerevisiae (strain ATCC 204508 / S288c)), Q03530;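 active = fall in fluorescence gain of 50% or more versus controls, with final raw signal at or below 3038400; inconclusive = same 50% fall but final raw signal above 3038400; inactive = fall in fluorescence gain under 50%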;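 note: plate controls were neutral control wells for no effect and wells lacking membranes for full effect; tested at 10 µM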
Target sequence (Q03530 whole entry, looked up): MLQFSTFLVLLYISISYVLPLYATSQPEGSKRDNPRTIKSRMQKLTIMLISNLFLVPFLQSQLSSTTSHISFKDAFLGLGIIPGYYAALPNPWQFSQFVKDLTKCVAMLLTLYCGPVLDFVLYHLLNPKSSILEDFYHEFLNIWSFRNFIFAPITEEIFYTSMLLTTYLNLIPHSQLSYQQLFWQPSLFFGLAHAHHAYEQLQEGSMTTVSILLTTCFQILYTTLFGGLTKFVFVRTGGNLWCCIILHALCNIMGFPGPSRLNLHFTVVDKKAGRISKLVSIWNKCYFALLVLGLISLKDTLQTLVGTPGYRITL
Yeast UUG start: modulators of yeast start codon fidelity, primary screen, whole organism, S. cerevisiae, single point, plate reader | S. cerevisiae UUG-firefly luciferase reporter, luminescence/redox ratio | activity score, % at 18.7 µM | 350,000 compounds, 0.13% hits;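 active = replicate mean at a twofold rise or more, about +100% in these data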;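 note: firefly luciferase made from a UUG start codon reports start codon fidelity; reporter light over untreated wells divided by growth signal over untreated wells; some hits fall short of that in this replicate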
eIF4H FP inh retest: recorded beside eIF4H FP inh, whose call it bears; inhibition, %; compound at 20 µM; confirmation average;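 mean of two retest wells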
PABP polyA inh retest: also measured in PABP polyA inh; calls as there; inhibition, %; compound at 20 µM; confirmation repeats;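 mean of two retest wells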
MT1-MMP act inh RFP: further read-out of MT1-MMP act inh, marked with its call; RFP signal change, %; measured here: RFP expression control read;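 0 = vehicle wells; hits needed this value within 50% of zero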
Starred values were filed as active, the others as inactive; i = inactive; ? = inconclusive; . = not tested or not shown; & = joins results of further samples; [ ] = another dose, or the depositor's remark.

SMILES | PABP polyA inh | Env fusion inh | eIF4H FP inh | CSC inhib | MT1-MMP act inh | MT1-MMP act inh RFP | Rce1 inhib | Yeast UUG start | others
C#CCNC(=O)C1=C[C@H](c2ccc(Br)cc2)C[C@H](OCCCCO)O1 | 14 | -20[16.7 µM] | 1 | -2 | 0 | -3 | i | 10&-12
NC(=O)C1CCN(C(=O)c2ccc(Oc3cc(Cl)cc(Cl)c3)o2)CC1 | 6 | 8 | -10 | 3 | 0 | 3 | i | -7
Cc1cccc(C(=O)N=c2sccn2C)c1[N+](=O)[O-] | 6 | -31 | -9 | -4 | -2 | 3 | i | 8
O=C(OCCCOC(=O)c1ccc(Br)o1)c1ccc(Br)o1 | . | -1 | . | -1 | -2 | 2 | i | 4
COc1ccccc1OCCNC(=O)Cc1ccc(Cl)c(Cl)c1 | -5 | -5 | 0 | 8 | 1 | 3 | i | .
CN1C(=O)/C(=C/c2ccc(O)c([N+](=O)[O-])c2)N(C)C1=S | 7 | 16 | -3 | 3 | 19 | 4 | i | .
CC(=O)Oc1ccc(C(=O)[C@H]2[C@H]3C(=O)N(c4ccccc4)C(=O)[C@H]3[C@@H]3C=CC=NN32)cc1 | ? | 14 | 8 | 6 | -12 | 1 | i | -11
Cc1cnc(C(=O)OCC(=O)N=c2sccn2Cc2ccccc2Cl)cn1 | -8 | 2 | -6 | -10 | -4 | 2 | i | -7
O=C(NCc1cccnc1)C1CCN(S(=O)(=O)c2cc([N+](=O)[O-])ccc2Cl)CC1 | . | -14 | . | 1 | -1 | -6 | . | -10
Cc1ccc(-c2ccc(=O)n(CC(=O)NCCN3CCCCC3C)n2)cc1 (stereo unspecified) | -8 | . | -7 | 17 | -6 | 1 | i | -7
COc1cc(OC)c(NC(=O)c2cncn2-c2ccc(F)cc2)cc1Cl | 0 | -14 | -11 | 6 | 0 | 3 | . | -13
Cc1cc(NC(=O)/C=C\C(=O)O)c([N+](=O)[O-])cc1C | 0 | -1 | 2 | -7 | 1 | -1 | i | .
CCOc1ccc(N/C(N)=N/c2nc(C)cc(C)n2)cc1 | 3 | -41 | -4 | 8 | -1 | -3 | i | 3
O=C(CCN=C1NS(=O)(=O)c2ccccc21)N1CCc2ccccc2C1 | 0 | -3 | 1 | . | 2 | 3 | i | .
CCCN1CCc2c(sc(NC(=O)C3CCN(S(=O)(=O)c4cccs4)CC3)c2C(N)=O)C1 | . | 15 | . | 1 | -135 | -3 | i | -2
O=C(OCC(=O)N1CCc2ccccc21)c1cccnc1Cl | -10 | . | -4 | 0 | 3 | 2 | i | 0
CCOc1ccc(CC(=O)N/N=C/c2cccnc2)cc1 | 6 | 5 | -1 | 3 | 3 | 2 | i | -18
O=C1CN(C(=O)c2ccc(Br)o2)C(c2ccccc2)c2cc(Br)ccc2N1 (stereo unspecified) | -4 | 26 | 2 | 0 | -29 | -25 | i | -15
Cc1ccc(NC(=O)c2ccc(CSc3nnc(-c4ccncc4)n3C)cc2)c(C)c1 | 5 | . | 8 | -10 | 6 | 2 | i | -11
CN(C)c1ccc(N2C(=NC(=O)c3ccccc3)SC3CS(=O)(=O)CC32)cc1 (stereo unspecified) | . | -6 | . | -14 | 2 | 0 | i | 5
Cc1onc(-c2ccccc2Cl)c1C(=O)Oc1cc(N)n(S(=O)(=O)c2ccc(F)cc2)n1 | -6 | . | -10 | . | 1 | 1 | . | -17
COc1ccc(CCNc2cc(C)[nH]c(=O)c2)cc1OC | 11 | -24 | -11 | -14 | 0 | 3 | i | -18
CCOC(=O)c1c(NC(=S)Nc2cccc(C)c2)sc2c1CC(C)(C)SC2 | -1 | 19 | 6 | 0 | -10 | -2 | i | .
O=C(C[C@H]1C/C=C\CCCC(=O)OC[C@H]2CCCN2C1=O)NCCO | . | -1 | . | . | 1 | 8 | . | -15

Reprinted from the entries so far for reference:
SMILES | PABP polyA inh | Env fusion inh | eIF4H FP inh | CSC inhib | MT1-MMP act inh | MT1-MMP act inh RFP | Rce1 inhib | Yeast UUG start | others
CN1C(=O)/C(=C/c2ccc(O)c([N+](=O)[O-])c2)N(C)C1=S | 7 | 16 | -3 | 3 | 19 | 4 | i | .
CC(=O)Oc1ccc(C(=O)[C@H]2[C@H]3C(=O)N(c4ccccc4)C(=O)[C@H]3[C@@H]3C=CC=NN32)cc1 | ? | 14 | 8 | 6 | -12 | 1 | i | -11
Cc1cnc(C(=O)OCC(=O)N=c2sccn2Cc2ccccc2Cl)cn1 | -8 | 2 | -6 | -10 | -4 | 2 | i | -7

(continued)
SMILES | PABP polyA inh | Env fusion inh | eIF4H FP inh | CSC inhib | MT1-MMP act inh | MT1-MMP act inh RFP | Rce1 inhib | Yeast UUG start | others
Cc1cc(C)c2c(C)[nH]nc2n1 | 1 | 3 | -7 | 43 | 4 | 4 | i | -15
COc1cccc(CN2CC(C(=O)NCCN3CCOCC3)CCC2=O)c1 (stereo unspecified) | 1 | -6 | -11 | -6 | 2 | 4 | i | -14
COc1ccc(C(=O)C2CCCCC2=O)cc1 (stereo unspecified) | -6 | . | -4 | -3 | -3 | 4 | i | -26
N=C(N)N=Nc1c(O)[nH]c2ccc(Br)cc12 | 4 | -25 | -2 | -12 | -9 | -7 | . | .
CCCc1cc(=O)[nH]c(SCC(=O)N2CC3(C)CC2CC(C)(C)C3)n1 (stereo unspecified) | . | 5 | . | -7 | -1 | 2 | . | -14
CCCCN1CC(COCc2ccccc2)OCCS1(=O)=O (stereo unspecified) | . | -1 | . | . | 2 | 2 | . | -3
CCOC(=O)c1c(/N=C/c2ccccc2O)sc2c1CCC2 | -6 | . | 4 | 6 | -2 | 7 | i | -20
O=C(Nc1ccc(S(=O)(=O)Nc2nccs2)cc1)C1=NN(c2ccccc2)C(=O)CC1 | 5 | -3 | 7 | -12 | -3 | 5 | . | -26
CCN(CC)S(=O)(=O)c1cccc(C(=O)Nc2ccccc2)c1 | -5 | -104 | -8 | . | 4 | -12 | . | 0
Cc1sc2ncnc(N3CCN(CCOc4ccc(Cl)cc4)CC3)c2c1C | -12 | . | 4 | 83* | 3 | -20 | i | 0
C=C(C)CSc1nc2nc(C)c(Br)cc2[nH]1 | 4 | i | 4 | -11 | . | . | i | -13
COc1ccc(S(=O)(=O)NC(=O)C2(C)CCN2C(=O)c2cccc(F)c2)cc1 (stereo unspecified) | . | 1 | . | . | 5 | 6 | . | 4
O=C(O)c1cccc(-c2ccc(/C=N/Nc3ccc([N+](=O)[O-])cc3)o2)c1 | 22* | -11 | 54 | -2 | -76 | -6 | i | -19 | eIF4H FP inh retest=-3;PABP polyA inh retest=82*
COCCC(=O)N1CCC(Oc2ccc(C(=O)N(C)C3CCCCC3)cc2)CC1 | 0 | 8 | 6 | -7 | -1 | -5 | i | 0
O=C1NN(c2ccccc2)C(=O)C1=Cc1ccccc1 | . | -28 | . | . | -4 | 2 | . | -16
COC(=O)c1ccc2nc(C)cc(Nc3ccc(N(C)C)cc3)c2c1 | 6 | -78 | 1 | 14 | 1 | 4 | i | -5
O=C(CSc1nnc(COc2ccc3c(c2)CCCC3)o1)Nc1ccc(F)cc1 | 2 | -41 | 5 | . | -6 | 3 | i | -16
COc1ccc(S(=O)(=O)NCC2CCCN(C(=O)CSC)C2)cc1 (stereo unspecified) | 4 | 8 | -5 | -12 | 4 | 2 | i | -14
O=C(NCCCl)Nc1ccc(Cl)c([N+](=O)[O-])c1 | 5 | 6 | -10 | 2 | 5 | 3 | i | .
O=C(/C=C/c1ccc(F)cc1)NC(=S)N1CCN(c2ccccn2)CC1 | 4 | -4 | -5 | -4 | 0 | -3 | i | -21
O=[N+]([O-])c1cc(C(F)(F)F)ccc1NN=C1CCCC1 | 5 | -1 | -4 | 7 | 1 | 3 | i | 39
CCCS(=O)(=O)NCc1cn2cccc(C)c2n1 | -4 | . | 4 | 3 | 0 | 4 | i | 0
Cc1ccc(-c2cc(C(F)F)nc(N3CCC(C)CC3)n2)cc1 | 4 | -5 | -2 | 44 | -3 | -4 | i | -9
CSc1cc(-c2ccccc2)n(Cc2c(Cl)cccc2Cl)c(=O)c1C#N | -1 | . | -4 | 59 | -6 | -7 | i | .
COc1cccc(NC(=O)C(C)Sc2nnc(C3CC3)n2C2CC2)c1 (stereo unspecified) | . | 1 | . | . | -5 | 3 | . | -3
CCc1ccccc1NC(=O)CN1CCN(C(=O)CNC(=O)c2ccc(N3CCCC3=O)cc2)CC1 | . | 3 | . | -3 | -1 | 2 | . | -5
CC1CCN(C(=O)CSc2nc(=O)n3ccccc3n2)CC1 | . | -7 | . | . | 0 | 3 | i | -16
COc1ccc(OC)c(NC(=O)c2cc3c(=O)n4ccccc4nc3n2C)c1 | 10 | 9 | 16 | 7 | 0 | 0 | i | -14
CCc1ccc(C(=O)OCC(=O)NC2CCCC2)cc1 | 14 | 8 | 3 | -12 | -1 | 1 | i | -11
O=C(Cc1ccccc1)c1nc2ccccc2s1 | 5 | 22 | 7 | 6 | 0 | 10 | i | -8
COc1ccc(N(C(=O)c2cccc(OC)c2OC)C2C=CS(=O)(=O)C2)cc1 (stereo unspecified) | 2 | . | -3 | -10 | 3 | 1 | i | -10
CCC(CO)Oc1cc(NCc2cccnc2)c2ncn(C(C)C)c2c1 (stereo unspecified) | . | 5 | . | 9 | 1 | 9 | . | -12
Cc1ccccc1Nc1nc(N)nc(COC(=O)c2nn(C)c(=O)c3ccccc23)n1 | . | -6 | . | . | 6 | -4 | . | 3
COc1ccc(C2SCC(C(=O)O)N2C(C)=O)cc1 (stereo unspecified) | -1 | -39 | -5 | -6 | 0 | 3 | i | 14
COCCNC(=O)c1cccc(OC2CCN(Cc3ccc(C(=O)OC)cc3)CC2)c1 | 5 | 3 | -8 | -1 | 1 | -4 | i | -2
C#CCOCCOCCOCCNc1nc(N2CCN(C(=O)[C@H](Cc3ccc(O)cc3)n3cc([C@@H](N)CC(C)C)nn3)CC2)nc(N2CCN(C(=O)[C@H](Cc3cc4ccccc4[nH]3)n3cc([C@@H](N)CC(C)C)nn3)CC2)n1 | 9 | -2 | 36 | -24 | . | . | i | .
Oc1ccc(Nc2nc(-c3ccccc3F)nc3ccccc23)cc1 | -3 | 22 | -1 | 2 | -5 | -1 | i | -4
Cc1ccc(N2CC(C(=O)Nc3nccs3)CC2=O)cc1 (stereo unspecified) | 10 | 31 | 3 | -15 | 0 | 2 | i | -9
CCCN1C(=O)/C(=N\OCC(=O)NCC(F)(F)F)c2ccccc21 | 20 | -26 | 5 | -5 | -2 | 2 | i | .
CCOc1ccc(/C(O)=C2/C(=O)C(=O)N(c3ncccn3)C2c2ccccc2)cc1 (stereo unspecified) | -15 | -13 | 1 | 1 | -10 | 1 | i | -8
Cc1cc(C)nc(-n2nc(C)cc2NC(=O)CN2CCc3ccccc3C2)n1 | 8 | . | 1 | 3 | 0 | -9 | i | -13
COc1ccc(CCNC(=O)C2CCCN(S(=O)(=O)c3ccccc3)C2)cc1 (stereo unspecified) | -6 | 0 | -17 | -51 | 2 | -3 | i | -14
